2A StopGo: FMDV 2A StopGo reporter, luciferase signal | human cells with a luciferase reporter of 2A StopGo recoding; control for the full effect not named in the record | Potency, µM (doses to about 57.9 µM), for inactives: top-dose signal change, negative = less light | 410,000 tested, 1.2% active | AID 1159524; active = well fitted falling curve with a large enough effect; inconclusive = small, poorly fitted or top-dose-only effect; inactive = no such curve, though single readings can be large or run the other way; tested in HEK293T cells; also: % is scaled to controls: 0 for no effect and ±100 for the full control effect; nearly all actives have a fitted effect of over 45% in size; luciferase light after 4 h
MARV entry inh: inhibitors of Marburg virus binding or cell entry. Marburg virus pseudotyped entry inhibition, cell reporter; control for the full effect not named in the record; about a third of the inactives were read at about 46 µM. Potency, µM (doses to about 37.8 µM), for inactives: top-dose activity change, negative = inhibition, hits mostly inhibitors. 300,000 tested, 1.8% active. AID 540276; active = well fitted inhibition curve with a large enough effect; inconclusive = small, poorly fitted or top-dose-only effect, or effect the other way; inactive = flat fitted curve, though single readings scatter; tested in HEK293 cells; about a fifth of its hits are not listed in these tables; also: % is scaled to controls: 0 for no effect and ±100 for the full control effect; luciferase read-out
SARS PLP yeast: inhibitors of SARS-CoV papain-like protease in yeast. S. cerevisiae expressing SARS-CoV PLpro, growth rescue; control for the full effect not named in the record. Potency, µM (top dose mostly 32.9 µM), without a hit: top-dose activity, positive = growth rescue. 330,000 tested, 0.19% active. AID 485353; active means well fitted rising curve with a large enough effect; inconclusive means small, poorly fitted or top-dose-only effect; inactive means no such curve, though single readings can be large or run the other way; also: 0% is about no effect; nearly all actives have a fitted effect of over 55% in size; growth read by luminescence after 48 h
RE007 growth inh: less growth of the S. pombe RE007 Vpr strain; Potency, µM (highest dose often 92.2 µM), for the others: at the top dose activity change, negative = less growth; 360,000 tested, 0.21% active; S. pombe RE007 Vpr strain, BacTiter-Glo ATP luminescence, 24 h; control for the full effect not named in the record; AID 651644; active = well fitted falling curve with a large enough effect; inconclusive = small, poorly fitted or top-dose-only effect; inactive = no such curve, though single readings can be large or run the other way;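 also: % is scaled to controls: 0 for no effect and ±100 for the full control effect; nearly all actives have a fitted effect of over 50% in size; the assay follows cell death caused by Vpr and the record does not say whether a fall means rescue or toxicity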
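Fission yeast strain RE007, carrying one chromosomally integrated HIV-1 vpr copy, was seeded at OD 0.01 in PMG+AL medium with 23 nL pinned compound. After 24 h at 30 °C and 99% humidity, viability was read by BacTiter-Glo luminescence.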
LASV entry inh: inhibitors of Lassa virus binding or cell entry; Lassa virus pseudotype entry inhibition, cell reporter; control for the full effect not named in the record; Potency, µM (series often up to 37.9 µM), for inactives: top-dose activity change, negative = inhibition, hits mostly inhibitors; 300,000 tested, 1.2% active; active means well fitted inhibition curve with a large enough effect; inconclusive means small, poorly fitted or top-dose-only effect, or effect the other way; inactive means flat fitted curve, though single readings scatter; tested in HEK293 cells; also: % is scaled to controls: 0 for no effect and ±100 for the full control effect; nearly all actives have a fitted effect of over 50% in size; luciferase read-out
Cruzain inh Det: cruzain (T. cruzi) inhibition with detergent | Potency, µM, for inactives: max response, negative = inhibition, usual class: inhibitors | purified cruzain, Z-FR-AMC fluorescence, 0.01% Triton | P25779 | 200,000 tested, 0.43% active | AID 1478;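 also: plate controls were neutral wells for no effect and buffer without enzyme for full effect; nearly all actives have a fitted effect of over 40% in size; top concentration of the series not given in the record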
Target sequence (P25779 123-467 limits assumed): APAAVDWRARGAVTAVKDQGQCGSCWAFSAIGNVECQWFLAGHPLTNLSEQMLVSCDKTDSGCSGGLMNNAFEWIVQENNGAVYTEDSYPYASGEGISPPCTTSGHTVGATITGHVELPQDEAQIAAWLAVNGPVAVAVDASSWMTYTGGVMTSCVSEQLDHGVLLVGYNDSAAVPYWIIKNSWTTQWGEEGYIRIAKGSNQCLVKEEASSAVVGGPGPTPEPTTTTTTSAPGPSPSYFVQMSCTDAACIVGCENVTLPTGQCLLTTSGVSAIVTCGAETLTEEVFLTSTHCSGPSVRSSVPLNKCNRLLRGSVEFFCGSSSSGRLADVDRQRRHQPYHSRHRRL
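Cysteine protease activity tested under reducing, mildly acidic conditions (100 mM sodium acetate pH 5.5, 5 mM DTT) plus 0.01% Triton X-100. Cruzain 1.5 nM; substrate Z-FR-AMC 2 uM; 15 min compound preincubation at room temperature.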
NS1 inh: inhibitors of influenza NS1 protein function | S. cerevisiae slowed by influenza A NS1, growth recovery by OD600 | Potency, µM (series often up to 46.1 µM), for inactives: at the highest dose activity, positive = more growth | 270,000 tested, 0.4% active | AID 2326; active means well fitted rising curve with a large enough effect; inconclusive means small, poorly fitted or top-dose-only effect; inactive means no such curve, though single readings can be large or run the other way; also: nearly all actives have a fitted effect of over 50% in size
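Read-out: OD600 growth recovery of NS1-expressing budding yeast. Cells grown overnight at 30C in -URA glucose medium, washed, resuspended and diluted 1:100 in 2% galactose assay medium, pH 6.0. Same strain lacking NS1 served as positive control.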
Cruzain noTriton: blocks cruzain activity in detergent-free assay; P25779; purified cruzain, Z-FR-AMC fluorescence, no detergent; Potency, µM, for inactives: max response, negative = inhibition, hits mostly inhibitors; 200,000 tested, 2.3% active;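 also: plate controls were enzyme without inhibitor for no effect and buffer without enzyme for full effect; nearly all actives have a fitted effect of over 40% in size; top concentration of the series not given in the record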
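Detergent-free condition (0.00005% Triton X-100) in acetate buffer pH 5.5 with DTT. 1.5 nM enzyme and compound were pre-mixed 15 min, then 2 uM Z-FR-AMC substrate added; reaction progress from fluorescence change between first and third reads (60 s).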
* = called active by the depositor; ? = inconclusive; · = no result given; & = joins results of further samples; [ ] = dose if it differs, or a comment. Unless noted, calls follow the shape of the dose curve; as a rule, active = well fitted curve in the direction sought with a large enough effect; inconclusive = small, poorly fitted or top-dose-only effect, or another doubt; inactive = no such curve, though single readings can be large; an effect the other way counts as inactive or inconclusive. Potency is read from the fitted curve at half-maximal effect.

Every second line gives: 2A StopGo | MARV entry inh | SARS PLP yeast | RE007 growth inh | LASV entry inh | Cruzain inh Det | NS1 inh | Cruzain noTriton
> CN(CC(=O)NC1CCCc2ccccc21)S(=O)(=O)c1cccs1 (stereo unspecified)
→ -9.7% | ? | 15.8% | -6.9% | 8.0% | -4.8% | 3.7% | -2.3%
> O=C(Nc1ccc2c(c1)OCO2)C1CCN(Cc2cnn(-c3ccccc3)c2-n2cccc2)CC1
→ 0.0% | ? | -0.9% | 9.9% | -19.3% | 3.6% | 2.9% | 2.1%
> O=c1c(=O)n(-c2ccccc2)ccn1Cc1cccc(C(F)(F)F)c1
→ -0.8% | · | · | · | 12.1%[46.1 µM] | -1.1% | · | 6.3%
> Oc1ccc2ccccc2c1C=Nc1ccccc1
→ 0.0% | -29.3%&-29.3%[46.1 µM] | ? | 3.1% | ? | · | ? | ·
> CCc1ccccc1NS(=O)(=O)c1ccc2[nH]cc(C(=O)N(CC)Cc3ccccc3)c(=O)c2c1
→ 0.2% | · | · | · | -22.6%[46.1 µM] | -4.3% | · | -2.3%
> COc1cc(C(=O)NCCCCCCNC(=O)c2cc(OC)c(OC)c(OC)c2)cc(OC)c1OC
→ 2.4% | · | -3.7% | -15.3% | · | · | 11.3% | ·
> CN(C(=O)COC(=O)c1ccc(C#N)cc1)c1ccccc1
→ 12.4% | 28.4%[46.1 µM] | -12.5% | 11.3% | 17.3% | · | 4.2% | ·
> Cc1cc(C(=O)NCCCN2CCCC2=O)cs1
→ 0.0% | 0.9% | -0.4% | -12.5% | -23.7%[14.3 µM] | 1.8% | -2.9% | 3.2%
> Cc1ccc(CNC(=O)CC(C)S(=O)(=O)c2ccc3c(c2)NC(=O)CS3)o1 (stereo unspecified)
→ -18.7% | · | -2.6% | 14.3% | · | · | 7.5% | ·
> O=[N+]([O-])c1ccc(NCCCN2CCOCC2)c(Cl)c1
→ 13.3% | 2.7% | 5.0% | -23.4% | ? | -8.4% | 0.8% | -3.7%
> O=S(=O)(c1cccc(-c2cn3cccnc3n2)c1)N1CCOCC1
→ -19.1% | 26.4% | 0.3% | -4.7% | -22.9%[14.3 µM] | ? | ? | ?
> COc1ccc(OC)c(C2C(C(=O)c3ccco3)=C(O)C(=O)N2Cc2cccnc2)c1 (stereo unspecified)
→ 23.3% | · | -5.8% | 1.6% | · | · | -18.5% | ·
> Cc1ccc(C)c(NC(=S)N(Cc2cccc(Br)c2)CC2CCC(C(=O)O)CC2)c1 (stereo unspecified)
→ -14.7% | 1.2% | -0.5% | 10.4% | -5.2% | · | · | ·
> Cn1cc(C(=O)NCCO)c(=O)c2ccccc21
→ 2.3% | 2.1%[46.1 µM] | 2.1% | -9.2% | -7.0%[46.1 µM] | · | · | ·
> CNC(=O)c1c(NC(=O)c2cccc(C)c2)sc2c1CCC2
→ 53.1%[activator] | ? | -8.1% | -12.2% | 3.9% | · | 0.3% | ·
> CCSc1cnc(-c2ccccc2)n1CC
→ · | 5.6% | -14.6% | -0.3% | 11.7% | 2.5% | -16.5% | 2.4%
> Cc1ccc(CNS(=O)(=O)c2ccc3c(c2)n(C)c(=O)n3C)cc1
→ -22.5% | ? | -0.6% | -16.4% | ? | · | -1.9% | ·
> CCN1CCc2nc(N)oc2CC1
→ -16.1% | ? | · | -1.1%[18.4 µM] | -19.0% | -3.4% | -3.1% | 4.2%
> Cc1nc2cccnc2n1C1CCN(S(C)(=O)=O)CC1
→ 17.5% | · | · | · | ? | 1.6% | · | -4.9%
> CCc1ccc(-c2nc(NC(=O)c3ccc(OCC(=O)Nc4ccc(F)cc4)c(OC)c3)sc2C)cc1
→ -15.2% | ? | 13.9% | · | -13.0% | -4.8% | -6.7% | 3.98µM*
> CSc1ncc(Cl)c(C(=O)Nc2ccccc2Br)n1
→ -0.5% | · | -2.8% | 6.4% | · | · | -12.6% | ·
> CCC(=O)c1ccc(N2CCN(C(=O)Cc3ccccc3)CC2)c(F)c1
→ ? | -1.6% | -5.7% | -7.5% | -3.6% | -8.4% | -5.2% | 1.9%
> O=C(Cn1cc(SCc2cccc(Cl)c2)c2ccccc21)N1CCOCC1
→ 33.1%&33.6%[activator] | ? | -4.4% | 28.2% | 1.8%[46.1 µM] | -9.6%&-10.1% | 2.8% | ?
> Cc1sc2ncnc(SCC(=O)N3c4ccccc4Sc4ccc(Cl)cc43)c2c1C
→ -19.6% | ? | 0.7% | 6.8% | -0.2% | -3.7% | 10.8% | 7.94µM*
> CCc1ccc(CNC(=O)C2CCC(=O)N(CCc3ccc(Cl)cc3)C2)nc1 (stereo unspecified)
→ 9.9% | 3.5%[46.1 µM] | 6.6% | -4.5% | 16.2%[46.1 µM] | · | -0.1% | ·
> Cc1ccc(CNC(=O)C(Cc2ccccc2)NS(=O)(=O)c2ccc(Br)s2)cc1 (stereo unspecified)
→ -49.1% | ? | -84.6% | -2.7% | -24.0%&-28.7% | -5.4% | -10.0% | -4.2%
> Cc1ccc(-n2nc3c(N4CCCC(C(=O)NCc5ccccc5C)C4)nnc(C)c3c2C)cc1 (stereo unspecified)
→ 11.1% | · | · | · | -3.2%[46.1 µM] | -0.2% | · | 19.8%
> COc1cn(CC(=O)Nc2ccccc2)c(CN2CCCCC2)cc1=O
→ -7.8% | · | · | · | -8.1%[46.1 µM] | 1.8% | · | 13.9%
> COc1ccc(Cl)cc1NC(=O)CSc1nc(=O)n(Cc2ccco2)c2c1CCC2
→ -16.6% | · | · | · | -25.6%[46.1 µM] | -4.7% | · | 12.2%
> CC1CN(S(=O)(=O)c2ccc(C(=O)N3CCc4ccccc43)cc2)CC(C)O1 (stereo unspecified)
→ -6.5% | ? | 3.5% | -2.6% | -0.1% | · | · | ·
> COc1ccc(-n2nc(C(=O)NCC(=O)N3CCN(c4ccccn4)CC3)c3ccccc3c2=O)cc1OC
→ -17.5% | ? | -0.1% | -10.1% | -15.6%[46.1 µM] | · | -5.0% | ·
> CCC(C)NCc1ccc(C(=O)OC)o1 (stereo unspecified)
→ 0.8% | -0.1% | -2.3% | -1.7% | 0.8% | 6.4% | 5.0% | -9.6%
> CCOc1ccc(CC(=O)OCN2C(=O)c3ccccc3C2=O)cc1
→ 9.4% | 4.9% | 1.5% | -2.8% | -0.5% | -3.3% | -16.8% | 8.3%
> COc1ccccc1CNC(=O)c1ccc(NS(=O)(=O)c2c(C)noc2C)cc1
→ 5.9% | -3.5% | 11.5% | -10.3% | 5.5% | 2.4% | 5.7% | -10.2%
> CC(=O)c1c(C)oc2ccc(OCc3ccccc3)cc12
→ 39.4%[activator] | · | -4.7% | -12.4% | · | · | -47.4% | ·
> O=C(C[n+]1ccc(C(=O)NCCCO)cc1)c1cccc(Br)c1
→ 6.6% | -1.5% | 0.3% | -10.1% | -9.8% | · | 3.9% | ·
> O=C(C1CC1c1ccccc1)N1CCOCC1 (stereo unspecified)
→ -5.1% | -2.8% | -1.7% | -13.7% | 9.2% | 5.1% | -9.2% | -4.5%
> Cc1cc(/C=C(\C#N)C(=O)N2CCOCC2)c(C)n1C1CCCC1
→ -2.8% | 4.1% | -0.7% | -5.5% | · | · | -2.9% | ·
> O=C(CCC(=O)N(CC(=O)NC1CCCC1)c1ccc(F)cc1)Nc1nccs1
→ -10.9% | 1.9%[46.1 µM] | 0.0% | 2.9% | -1.9%[46.1 µM] | · | 0.6% | ·
> COc1ccc(CN2CCNC(=O)C2CC(=O)N(C)Cc2ccncn2)c(OC)c1 (stereo unspecified)
→ 3.6% | 22.7%[46.1 µM] | -1.4% | 8.8% | -3.2% | · | 0.9% | ·
> O=C(Cn1c(=O)c2cccn2c2ccccc21)NCCCN1CCCCC1
→ -10.4% | · | 3.1% | 0.5% | · | · | -4.2% | ·
> CCOC(=O)Nc1ccc2c(c1)C(=NO)c1ccccc1-2
→ 16.5% | -20.4% | · | 22.2% | -17.8%[46.1 µM] | · | · | ·
> CN(C)S(=O)(=O)c1cccc(COC(=O)CN2C(=O)NC3(CCCC3)C2=O)c1
→ ? | · | 5.8% | 2.2% | · | · | 11.6% | ·
> O=C(COc1ccccc1)N1CCN(S(=O)(=O)c2cccs2)CC1
→ -9.4% | ? | 4.2% | 12.5% | 4.1% | 4.4% | -1.4% | 2.5%
> CCOC(=O)CSc1nc2ccccc2n2cnnc12
→ 2.9% | -3.7% | -0.3% | -14.4% | 3.0% | -1.8% | 1.5% | -0.7%
> CC(Sc1nc(-c2ccccc2)nc2c1COC(C)(C)C2)C(=O)N1CCOCC1 (stereo unspecified)
→ 11.6% | 0.6% | 3.2% | 1.8%[3.69 µM] | 18.4% | -1.1% | -11.8% | ?
> NC(=O)CC(NC(=O)Cc1ccc(Cl)cc1)c1ccc(NCCN2CCOCC2)c([N+](=O)[O-])c1 (stereo unspecified)
→ -12.9% | · | -1.0% | -15.5% | · | · | -2.0% | ·
> Cc1ccc(OC(=O)c2cccc(C(=O)Oc3ccc(C)cc3)n2)cc1
→ 13.4% | 3.6% | -1.3% | 14.9% | 3.3% | 5.9% | 4.1% | -8.4%

Quoted from above (2 entries):
Every second line gives: 2A StopGo | MARV entry inh | SARS PLP yeast | RE007 growth inh | LASV entry inh | Cruzain inh Det | NS1 inh | Cruzain noTriton
> NC(=O)CC(NC(=O)Cc1ccc(Cl)cc1)c1ccc(NCCN2CCOCC2)c([N+](=O)[O-])c1 (stereo unspecified)
→ -12.9% | · | -1.0% | -15.5% | · | · | -2.0% | ·
> Cc1ccc(OC(=O)c2cccc(C(=O)Oc3ccc(C)cc3)n2)cc1
→ 13.4% | 3.6% | -1.3% | 14.9% | 3.3% | 5.9% | 4.1% | -8.4%

Look-ups from the entries so far.
CCC(C)NCc1ccc(C(=O)OC)o1 (stereo unspecified) in Cruzain inh Det = 6.4%
COc1ccc(-n2nc(C(=O)NCC(=O)N3CCN(c4ccccn4)CC3)c3ccccc3c2=O)cc1OC in SARS PLP yeast = -0.1%

Assay outcomes from PubChem BioAssay.
